Screening data deposited in PubChem by Broad Institute.
FGF22 binding: binders of recombinant human FGF22 by thermal shift; Q9HCT0; SYPRO orange fluorescence; percent of sucrose octasulfate shift, DMSO zero; calls only at 9.99 µM; 340,000 compounds, 1.5% hits; AID 651658;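 active = melting point raised past a set limit in the mean and every replicate; inconclusive = no clear call; three in four hits are not shown here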
Target sequence (Q9HCT0 whole entry, looked up): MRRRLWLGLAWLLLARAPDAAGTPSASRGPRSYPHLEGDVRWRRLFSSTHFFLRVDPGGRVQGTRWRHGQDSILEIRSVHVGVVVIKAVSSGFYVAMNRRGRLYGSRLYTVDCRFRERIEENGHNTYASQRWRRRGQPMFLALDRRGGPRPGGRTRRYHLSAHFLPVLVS
MLL AF4-AF9 inh: inhibitors of human MLL-AF4/AF9 interaction. AlphaScreen, biotin-AF4 peptide binding to FLAG-AF9. inhibition, % at 10 µM. 350,000 compounds, 0.47% hits. AID 651704;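 active = every replicate reaching a set inhibition limit, whatever the replicate mean, cut at about 25% in these data; inconclusive = mean inhibition reaches that limit but some replicates miss it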;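 also: 0% = plate neutral control median and 100% = total signal loss; the record names both 10 and 1 µM as test concentration; the first replicate is given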
Target sequence (P42568 whole entry, looked up): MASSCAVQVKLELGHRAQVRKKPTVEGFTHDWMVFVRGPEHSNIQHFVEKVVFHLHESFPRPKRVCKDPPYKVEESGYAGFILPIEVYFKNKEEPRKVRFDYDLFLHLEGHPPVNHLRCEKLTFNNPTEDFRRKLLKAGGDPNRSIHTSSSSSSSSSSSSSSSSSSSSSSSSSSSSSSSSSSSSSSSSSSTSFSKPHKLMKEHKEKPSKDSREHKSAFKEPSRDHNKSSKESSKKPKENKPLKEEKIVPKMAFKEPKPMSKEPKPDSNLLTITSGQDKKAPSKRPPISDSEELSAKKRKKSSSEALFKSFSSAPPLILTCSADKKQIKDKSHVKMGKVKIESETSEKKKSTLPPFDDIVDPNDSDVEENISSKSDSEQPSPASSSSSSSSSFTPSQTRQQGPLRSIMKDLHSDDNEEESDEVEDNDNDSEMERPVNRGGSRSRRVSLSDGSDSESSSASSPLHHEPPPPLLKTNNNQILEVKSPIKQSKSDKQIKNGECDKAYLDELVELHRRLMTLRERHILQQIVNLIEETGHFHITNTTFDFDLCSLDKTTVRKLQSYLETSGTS
The depositor's hits bear a star; i = inactive; ? = inconclusive; + = active, no number; & = joins results of further samples.

SMILES | FGF22 binding | MLL AF4-AF9 inh
CCC(=O)N1CC(=O)N2[C@H](CO)[C@@H](c3ccc(C#CCC(C)C)cc3)[C@@H]2C1 | i | -6.0
C[C@H]1CN([C@@H](C)CO)C(=O)c2cc(-c3cccnc3)cnc2O[C@@H]1CN(C)C | i | -4.4
C[C@@H]1CN([C@H](C)CO)C(=O)c2cc(NC(=O)Cc3ccccc3)ccc2O[C@@H](C)CCCCO[C@H]1CN(C)C(=O)Cc1ccccc1 | i | -0.4
COc1ccc(NC(=O)N(C)C[C@H]2OCCCC[C@@H](C)Oc3ccc(NC(=O)CCCN(C)C)cc3C(=O)N([C@H](C)CO)C[C@H]2C)cc1 | i | 2.1
CCNC(=O)C[C@@H]1CC[C@H]2[C@@H](COc3ccc(NC(=O)Nc4ccc(C)cc4)cc3C(=O)N2C)O1 | i | 0.5
O=C(C[C@@H]1CC[C@@H](NS(=O)(=O)c2cccc(F)c2)[C@@H](CO)O1)N1CCCCC1 | i | -0.3
CN1c2ccc(C3=CCCCC3)cc2[C@@H]2[C@@H](CCN2C(=O)Nc2cc(F)ccc2F)[C@@H]1CO | i | 12
CO[C@@H]1CN(C)C(=O)c2ccc(NC(=O)NC(C)C)cc2OC[C@H](C)N(CCC(F)(F)F)C[C@@H]1C | i | 1.1
COc1cccc(CNC(=O)[C@H]2CCCN2C(=O)[C@H]2CCCN2C(=O)c2ccc(F)cc2F)c1 | i | -0.1
CCCCNc1cccc2c1S(=O)(=O)N[C@H](CC(C)C)CO2 | i | -1.3
C[C@@H]1CN([C@H](C)CO)C(=O)c2cc(NC(=O)Nc3cccc4ccccc34)ccc2O[C@@H](C)CCCCO[C@H]1CN(C)C(=O)Nc1ccc(C(F)(F)F)cc1 | i | -1.2
CCCC(=O)Nc1ccc2c(c1)OC[C@H](C)N(CC1CCCC1)C[C@@H](C)[C@@H](OC)CN(C)C2=O | i | -1.3
COCCNC(=O)C[C@H]1CC[C@H]2[C@@H](COc3ccc(NC(=O)c4ccno4)cc3C(=O)N2C)O1 | i | -0.8
C[C@@H]1CN([C@H](C)CO)C(=O)c2cccc(NC(=O)Nc3ccc(F)cc3)c2O[C@@H]1CN(C)C(=O)Nc1ccc(C(F)(F)F)cc1 | i | -8.9
COc1ccc(C(=O)Nc2ccc3c(c2)OC[C@H](C)N(C(C)=O)C[C@@H](C)[C@@H](OC)CN(C)C3=O)cc1 | i | -1.5
C[C@H](CO)N1C[C@H](C)[C@@H](CN(C)CC2CC2)OCCCC[C@H](C)Oc2ccc(NC(=O)NC3CCCCC3)cc2C1=O | i | ?
COCC(=O)N(C)C[C@H]1Oc2ncc(C#Cc3ccccc3)cc2C(=O)N([C@@H](C)CO)C[C@H]1C | i | -1.6
COc1ccc(NC(=O)N(C)C[C@H]2Oc3c(NC(=O)Nc4ccc5c(c4)OCO5)cccc3C(=O)N([C@@H](C)CO)C[C@@H]2C)cc1 | i | 2.0
Cc1noc(C)c1S(=O)(=O)Nc1cccc2c1O[C@H](CN(C)Cc1ccc3c(c1)OCO3)[C@H](C)CN([C@H](C)CO)C2=O | i | -2.7
O=C(C[C@H]1C[C@H]2c3cc(NC(=O)Nc4ccc(F)cc4)ccc3O[C@H]2[C@H](CO)O1)NC1CCCC1 | i | -1.0
C[C@@H]1CN([C@H](C)CO)C(=O)c2cc(NS(C)(=O)=O)ccc2O[C@@H](C)CCCCO[C@H]1CN(C)Cc1ccncc1 | + | -19
C[C@@H]1CN([C@H](C)CO)C(=O)c2c(c3ccccc3n2C)-c2ccccc2CO[C@@H]1CN(C)C(=O)c1ccncc1 | i | -2.7
CCCNC(=O)C[C@H]1CC[C@@H]2[C@@H](COc3ccc(NC(=O)CCC)cc3C(=O)N2C)O1 | i | 1.9
COc1ccc(NC(=O)Nc2ccc3c(c2)C(=O)N([C@@H](C)CO)C[C@H](C)[C@@H](CN(C)C(=O)C2CCCCC2)OCCCC[C@H](C)O3)cc1 | i | 6.7
C[C@H](CO)N1C[C@H](C)[C@@H](CN(C)C(=O)CCCN(C)C)OCCCC[C@H](C)Oc2ccc(NS(=O)(=O)c3ccccc3)cc2C1=O | i | -0.2

Next section
SMILES | FGF22 binding | MLL AF4-AF9 inh
CCOC(=O)C1CSCCS(=O)(=O)N1Cc1cccc(F)c1 (configuration not stated) | i | -4.8
CO[C@@H]1CN(C)C(=O)c2ccc(NC(C)=O)cc2OC[C@H](C)N(C(=O)CN2CCOCC2)C[C@H]1C | i | -1.6
CCCC#C/C(CCC)=C1\c2ccccc2C(=O)N1c1ccccc1 | i | 2.8
C[C@@H]1CN([C@@H](C)CO)C(=O)c2c(c3ccccc3n2C)-c2ccccc2CO[C@@H]1CN(C)C(=O)NC1CCCCC1 | i | 1.9
C[C@@H](NC(=O)C[C@H]1CC[C@H]2[C@@H](COC[C@@H](O)CN2Cc2cc(F)ccc2F)O1)c1ccccc1 | i | -0.3
C[C@@H]1CN([C@@H](C)CO)C(=O)c2cc(C#CC3CCCCC3)cnc2O[C@@H]1CN(C)S(=O)(=O)c1ccccc1 | i | -1.0
C[C@H]1CCCCO[C@H](CN(C)CC2CC2)[C@@H](C)CN([C@@H](C)CO)C(=O)c2cc(NC(=O)Nc3ccccc3)ccc2O1 | i | 16
CN(C)CC(=O)N1CC2(C1)[C@@H](c1ccccc1)[C@@H](CO)N2S(C)(=O)=O | i | -0.9
O=C(C1CCOCC1)N1CC2(C1)[C@H](c1ccccc1)[C@@H](CO)N2Cc1ccc(Cl)cc1 | i | -0.8
CN(C)CC#Cc1ccc([C@@H]2[C@@H](CO)N3C(=O)CN(C(=O)c4ccc(F)cc4)C[C@H]23)cc1 | i | 0.3
C[C@@H]1CN([C@H](C)CO)C(=O)c2cc(-c3cccc(C#N)c3)cnc2O[C@H]1CN(C)C(=O)c1ccccn1 | i | -4.9
CO[C@H]1CN(C)C(=O)c2ccc(NC(=O)C3CCC3)cc2OC[C@@H](C)NC[C@H]1C | i | -0.5
C[C@@H]1CN([C@H](C)CO)C(=O)c2cccc(NC(=O)C3CCOCC3)c2O[C@H]1CN(C)Cc1ccc(Oc2ccccc2)cc1 | i | 4.7
C[C@H](CO)N1C[C@H](C)[C@H](CN(C)S(=O)(=O)c2cccs2)Oc2ccc(NS(=O)(=O)c3cn(C)cn3)cc2C1=O | i | -0.5
COc1ccc(NC(=O)Nc2ccc3c(c2)C(=O)N([C@@H](C)CO)C[C@H](C)[C@@H](CN(C)Cc2ccccc2)OCCCC[C@H](C)O3)cc1 | i | 6.9
COc1ccc(S(=O)(=O)Nc2ccc3c(c2)C(=O)N([C@@H](C)CO)C[C@@H](C)[C@@H](CN(C)S(=O)(=O)c2ccc(C)cc2)OCCCC[C@H](C)O3)cc1 | i | -1.2
COc1ccc(S(=O)(=O)Nc2ccc3c(c2)C(=O)N([C@H](C)CO)C[C@@H](C)[C@H](CN(C)C(=O)C2CCCCC2)OCCCC[C@@H](C)O3)cc1 | + | 2.2
CCC(=O)N1[C@@H]2c3ccc(-c4ccc(F)cc4)c(=O)n3C[C@@H]2[C@@H](CO)[C@@H]1C(=O)N(C)C | i | -0.5
O=C(NCC[C@@H]1CC[C@H](NC(=O)C2CCCC2)[C@@H](CO)O1)Nc1ccc(Cl)cc1 | i | 11
C[C@H]1CN([C@@H](C)CO)S(=O)(=O)c2ccc(-c3cccc(C#N)c3)cc2O[C@@H]1CN(C)C(=O)C1CC1 | i | 2.3
COc1ccc(S(=O)(=O)N(C)C[C@H]2Oc3ccc(NC(=O)CCCN(C)C)cc3C(=O)N([C@@H](C)CO)C[C@@H]2C)cc1 | i | -1.2
C[C@@H]1CN([C@@H](C)CO)C(=O)c2cc(NC(=O)Nc3ccc4c(c3)OCO4)ccc2O[C@H]1CN(C)C(=O)Nc1cccc2ccccc12 | i | 2.3
CC1(C)CC(=O)C=C(c2ccccc2-c2ccc3c(c2)OCO3)C1=O | i | 7.6
COc1ccccc1S(=O)(=O)N[C@H]1CC[C@H](CCn2cc(C3CC3)nn2)O[C@H]1CO | i | 1.8
COc1ccc(NC(=O)Nc2ccc3c(c2)CC(=O)N([C@@H](C)CO)C[C@@H](C)[C@H](CN(C)CC2CCCCC2)O3)cc1 | i | 19

Next part (3 carried over from the part before).
SMILES | FGF22 binding | MLL AF4-AF9 inh
CC1(C)CC(=O)C=C(c2ccccc2-c2ccc3c(c2)OCO3)C1=O | i | 7.6
COc1ccccc1S(=O)(=O)N[C@H]1CC[C@H](CCn2cc(C3CC3)nn2)O[C@H]1CO | i | 1.8
COc1ccc(NC(=O)Nc2ccc3c(c2)CC(=O)N([C@@H](C)CO)C[C@@H](C)[C@H](CN(C)CC2CCCCC2)O3)cc1 | i | 19
CO[C@@H]1CN(C)C(=O)c2ccc(NC(=O)c3ccc4c(c3)OCO4)cc2OC[C@H](C)N(CCC(F)(F)F)C[C@H]1C | i | 4.8
COc1cccc(S(=O)(=O)N2[C@@H]3CNC[C@H]2C3c2ccc(-c3cccc(C(=O)N(C)C)c3)cc2)c1 (some centres not stated) | i | -0.7&1.4
C[C@H](CO)N1C[C@H](C)[C@H](CN(C)Cc2ccc(-c3ccccc3)cc2)Oc2ccc(NC(=O)Nc3ccc(F)cc3)cc2C1=O | i | 2.1
COc1ccc(S(=O)(=O)Nc2ccc3c(c2)C(=O)N([C@@H](C)CO)C[C@@H](C)[C@H](CN(C)C(=O)Nc2c(C)noc2C)OCCCC[C@H](C)O3)cc1 | i | -2.5
COC(=O)C[C@@H]1C[C@@H]2c3cc(NC(=O)c4ccc5c(c4)OCO5)ccc3O[C@@H]2[C@H](CO)O1 | i | 2.4
Cc1ccc(S(=O)(=O)NCC[C@@H]2CC[C@H](NC(=O)c3cnccn3)[C@H](CO)O2)cc1 | i | -1.9
C[C@@H]1CN([C@H](C)CO)C(=O)c2cc(-c3ccccc3F)cnc2O[C@@H]1CN(C)C(=O)CN(C)C | i | -5.8
CS(=O)(=O)N1[C@@H](C#N)[C@H](c2ccc(C#CC3CCCC3)cc2)[C@@H]1CO | i | 2.3
COc1ccc(C#Cc2ccc3c(c2)[C@@H]2[C@@H](CCN2S(=O)(=O)C2=NC(C)C=N2)[C@H](CO)N3C)cc1 (some centres not stated) | i | 8.6
O=C(C[C@@H]1C=C[C@@H](NS(=O)(=O)c2ccc(F)cc2)[C@H](CO)O1)N1CCC(Cc2ccccc2)CC1 | i | 1.9
C[C@H](CO)N1C[C@H](C)[C@H](CN(C)S(C)(=O)=O)Oc2cc(C#Cc3ccc(F)cc3)ccc2S1(=O)=O | i | -1.5
CC(C)NC(=O)Nc1cccc2c1O[C@H](CN(C)C(=O)Nc1ccccc1)[C@@H](C)CN([C@@H](C)CO)C2=O | i | -1.7
C[C@H](CO)N1C[C@H](C)[C@@H](CN(C)C(=O)Cc2ccccc2)Oc2cc(C#CC3CCCC3)ccc2S1(=O)=O | i | 3.2
O=C(C[C@H]1CC[C@@H]2[C@H](COC[C@H](O)CN2C(=O)c2ccccc2F)O1)NCc1ccc(Cl)cc1 | i | -0.3
O=C1CS(=O)(=O)C(c2ccccc2)N1c1cccc(Cl)c1 (configuration not stated) | i | -4.1
CCC(=O)Nc1ccc2c(c1)C(=O)N(C)[C@@H]1CC[C@@H](CC(=O)N[C@H](C)c3ccccc3)O[C@H]1CO2 | i | -1.3
COc1ccc(CN(C)C[C@@H]2OCc3cn(nn3)CCCC(=O)N([C@@H](C)CO)C[C@@H]2C)cc1 | i | -24
CC(C)NC(=O)Nc1ccc2c(c1)C(=O)N([C@H](C)CO)C[C@@H](C)[C@@H](CN(C)S(=O)(=O)c1ccccc1)OCCCC[C@@H](C)O2 | i | 3.9
O=C(NCC[C@H]1CC[C@H](NC(=O)c2cnccn2)[C@@H](CO)O1)c1ccc2c(c1)OCO2 | i | 0.7
C[C@@H]1CN([C@@H](C)CO)C(=O)c2cc(C#Cc3ccc(F)cc3)cnc2O[C@H]1CN(C)S(C)(=O)=O | i | -0.2
O=S(=O)(N[C@@H]1CC[C@H](CCn2cc(-c3cccnc3)nn2)O[C@@H]1CO)c1ccc(Cl)cc1 | i | 10
COc1ccc(C(=O)N2C[C@@H]3[C@H](c4ccccc42)[C@@H](CO)N3C(=O)Cc2ccccn2)cc1 | i | -15
Cc1ccc(S(=O)(=O)N(C)C[C@@H]2OCCCC[C@H](C)Oc3ccc(NC(=O)Nc4ccc5c(c4)OCO5)cc3C(=O)N([C@H](C)CO)C[C@H]2C)cc1 | i | 2.9
CC(C)CC#Cc1ccc2c(c1)O[C@@H](CN(C)C(=O)Nc1ccccc1F)[C@@H](C)CN([C@@H](C)CO)S2(=O)=O | i | 1.3

Part of the list above in order of SMILES length, low to high:
SMILES | FGF22 binding | MLL AF4-AF9 inh
COc1cccc(S(=O)(=O)N2[C@@H]3CNC[C@H]2C3c2ccc(-c3cccc(C(=O)N(C)C)c3)cc2)c1 (some centres not stated) | i | -0.7&1.4
O=C(C[C@@H]1C=C[C@@H](NS(=O)(=O)c2ccc(F)cc2)[C@H](CO)O1)N1CCC(Cc2ccccc2)CC1 | i | 1.9
C[C@H](CO)N1C[C@H](C)[C@H](CN(C)S(C)(=O)=O)Oc2cc(C#Cc3ccc(F)cc3)ccc2S1(=O)=O | i | -1.5
CO[C@@H]1CN(C)C(=O)c2ccc(NC(=O)c3ccc4c(c3)OCO4)cc2OC[C@H](C)N(CCC(F)(F)F)C[C@H]1C | i | 4.8

Some of the compounds tested; rates above refer to the full screens.
